RE007 growth inh = qHTS Assay for Inhibitors of the HIV-1 protein Vpr | S. pombe RE007 Vpr strain, BacTiter-Glo ATP luminescence, 24 h; control for the full effect not named in the record | Potency, µM (titrated, usually from 92.2 µM), inactives show top-dose activity change, negative = less growth | 360,000 compounds, 0.21% hits | AID 651644, 2012; active = well fitted falling curve with a large enough effect; inconclusive = small, poorly fitted or top-dose-only effect; inactive = no such curve, though single readings can be large or run the other way;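 also: % is scaled to controls: 0 for no effect and ±100 for the full control effect; nearly all actives have a fitted effect of over 50% in size; the assay follows cell death caused by Vpr and the record does not say whether a fall means rescue or toxicity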
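Fission yeast RE007 carrying one integrated HIV-1 vpr copy, seeded at OD 0.01 in PMG+AL medium with 23 nL pinned compound. Grown 24 h at 30 degrees; viability read by BacTiter-Glo luminescence after 5 min.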
StopGo reporter = High Throughput Screening for Foot and Mouth Disease Virus Antivirals; Potency, µM (series often up to 57.9 µM), for the others: top-dose signal change, negative = less light; human cells with a luciferase reporter of 2A StopGo recoding; control for the full effect not named in the record; 410,000 compounds, 1.2% hits; active = well fitted falling curve with a large enough effect; inconclusive = small, poorly fitted or top-dose-only effect; inactive = no such curve, though single readings can be large or run the other way; tested in HEK293T cells; also: % is scaled to controls: 0 for no effect and ±100 for the full control effect; nearly all actives have a fitted effect of over 45% in size; luciferase light after 4 h
SARS PLpro yeast = qHTS of Yeast-based Assay for SARS-CoV PLP | S. cerevisiae expressing SARS-CoV PLpro, growth rescue; control for the full effect not named in the record | 330,000 compounds, 0.19% hits | Potency, µM (titrated, usually from 32.9 µM), without a hit: top-dose activity, positive = growth rescue; active means well fitted rising curve with a large enough effect; inconclusive means small, poorly fitted or top-dose-only effect; inactive means no such curve, though single readings can be large or run the other way; also: 0% is about no effect; nearly all actives have a fitted effect of over 55% in size; growth read by luminescence after 48 h
* hit, by the source's call; u = inconclusive; [ ] = another dose, or the depositor's remark. Potency is read from the fitted curve at half-maximal effect. Not all compounds are listed (hit frequency here may not be typical).

mol,RE007 growth inh,StopGo reporter,SARS PLpro yeast
CC(C)(C)OC(=O)N1CC(O)CC1C(=O)OCC(=O)c1ccc(-c2ccccc2)cc1 (stereo not drawn),-4%,-12%,2%
COc1ccccc1NC(=O)COC(=O)c1cc2ccccc2cc1O,-8%,-2%,7%
COc1ccc2[nH]c3c(c2c1)CCN1C(=O)C(CC(=O)NCCCn2ccnc2)C[C@H](C(=O)N(C(C)C)C(C)C)[C@@]31C (stereo partly drawn),-1%,0%,-2%
CN(C)CCCN(C(=O)c1ccc(Br)s1)c1nc2cc3c(cc2s1)OCO3,1%,-23%,-5%
COc1ccccc1C(=O)NC(=O)CSc1nnc(N)s1,0%,18%,0%
O=C1C=C(c2ccc(-c3ccccc3)cc2)C[C@@H](c2ccc3c(c2)OCO3)C1,6%,-12%,-5%
CC(C)n1nc(C(=O)Nc2nnc(C3CC3)s2)c2ccccc2c1=O,-9%,-19%,1%
CCOC(=O)C1=CN(Cc2ccco2)S(=O)(=O)N(C)C1c1ccc2ccccc2c1 (stereo not drawn),39%,0%,-2%
CC(C)(O)CC[C@@H](O)[C@](C)(O)C1CC[C@@]2(O)C3=CC(=O)[C@@H]4C[C@@H](O)[C@@H](O)C[C@]4(C)C3CC[C@]12C (stereo partly drawn),10%,-1%,-29%
Oc1oc(-c2ccccc2Br)nc1/C=N/c1ccccn1,-1%,63%[activator],-2%
Nc1c(C(=O)OCC(=O)Nc2ccc(OC(F)F)cc2)[nH]c(=O)[nH]c1=O,-11%,1%,-10%
Cc1cc(F)ccc1S(=O)(=O)Nc1ccc(C(=O)N(C)Cc2ccco2)cc1,-1%,33%[activator],9%
CCCCCCSc1ccc([C@H]2N[C@@](C)(C(=O)OC)[C@H]3C(=O)N(C)C(=O)[C@@H]23)cc1,-5%,u,-3%
O=S(=O)(Nc1cccc(S(=O)(=O)N2CCCC2)c1)c1cccc(Br)c1,6%,47%[activator],3%
O=C(NCCN1CCOCC1)c1cccc2c1C(=O)c1ccc(N3CCCC3)cc1S2(=O)=O,-15%,9%,-5%
O=C(COC(=O)c1cccc(F)c1)Nc1ccc(Cl)cn1,-8%,-10%,1%
Cc1ccc(S(=O)(=O)N2[C@@H](c3cccc(Cl)c3)C(C(=O)O)=CC[C@H]2c2ccc(Cl)cc2)cc1,-1%,-5%,6%
Cc1cc(NC(=O)COc2ccccc2C#N)no1,1%,55%[activator],1%
CN(c1cccc(Cl)c1)S(=O)(=O)c1cccc(C(=O)NN2CCOCC2)c1,0%,-7%,-3%
COC(=O)C1=C(c2cccc(NC(C)=O)c2)C[C@@H]2CC[C@H]1N2C,1%,2%,-22%

Taken from the results shown (2 entries):
mol,RE007 growth inh,StopGo reporter,SARS PLpro yeast
CN(c1cccc(Cl)c1)S(=O)(=O)c1cccc(C(=O)NN2CCOCC2)c1,0%,-7%,-3%
COC(=O)C1=C(c2cccc(NC(C)=O)c2)C[C@@H]2CC[C@H]1N2C,1%,2%,-22%

Entries of single compounds from above. Order of values: RE007 growth inh | StopGo reporter | SARS PLpro yeast
CC(C)(C)OC(=O)N1CC(O)CC1C(=O)OCC(=O)c1ccc(-c2ccccc2)cc1 (stereo not drawn) is listed with -4% | -12% | 2%
COc1ccc2[nH]c3c(c2c1)CCN1C(=O)C(CC(=O)NCCCn2ccnc2)C[C@H](C(=O)N(C(C)C)C(C)C)[C@@]31C (stereo partly drawn) is listed with -1% | 0% | -2%
Nc1c(C(=O)OCC(=O)Nc2ccc(OC(F)F)cc2)[nH]c(=O)[nH]c1=O is listed with -11% | 1% | -10%
COC(=O)C1=C(c2cccc(NC(C)=O)c2)C[C@@H]2CC[C@H]1N2C is listed with 1% | 2% | -22%

Continued:
mol,RE007 growth inh,StopGo reporter,SARS PLpro yeast
COc1ccc(S(=O)(=O)Nc2ccc3c(c2)C(=O)N([C@H](C)CO)C[C@H](C)[C@@H](CN(C)S(C)(=O)=O)O3)cc1,3%,-10%,0%
C=C1c2ccccc2O[C@H](C(=O)OCC)[C@H]1OC,-2%,-1%,9%
COc1ccc(-c2cn(Cc3ccc(C(N)=O)cc3)c(-c3ccc(Cl)nc3)n2)cc1,-1%,30%[activator],-5%
CN[C@H](C(=O)NC[C@H]1O[C@@H](n2cnc3c(N)ncnc32)[C@H](O)[C@@H]1O)[C@@H](C)OCc1ccccc1,1%,-4%,2%
Cc1ccc(C2CCN(C(=S)Nc3cccc(C)c3)C2)cc1 (stereo not drawn),-11%,31%[activator],-12%
O=S(=O)(/N=C(/c1ccccc1)N1CCOCC1)c1ccc(F)cc1F,10%,-8%,6%
C[C@@H]1O[C@@H](OC[C@H]2O[C@@H](Oc3c(-c4ccc(O)c(O)c4)oc4cc(O)cc(O)c4c3=O)[C@H](O)[C@@H](O)[C@@H]2O)[C@H](O)[C@H](O)[C@H]1O,15%,-21%,0%
Cc1ccc(C(=O)Nc2ccc(S(=O)(=O)N3CCCC3)cc2)s1,8%,13%,8%
CC(C)(O)/C=C/C(=O)[C@](C)(O)C1[C@H](O)C[C@@]2(C)C3CC=C4C(C=C(O[C@@H]5O[C@H](CO)[C@@H](O)[C@H](O)[C@H]5O)C(=O)C4(C)C)[C@]3(C)C(=O)C[C@]12C (stereo partly drawn),-17%,-12%,10%
Cc1cccc(CCN2CCN=C2N(C)C)c1,-1%,-1%,-1%
Cc1n[nH]c(=O)c2c(NC(=O)CSc3nncn3C(C)C)oc(C)c12,-12%,-21%,1%
COc1ccc(S(=O)(=O)N2CCOCC2)cc1NC(=O)CSc1nnc(C2CC2)n1N,9%,u,8%
CCOC(=O)C1=CN(Cc2cccc(F)c2)S(=O)(=O)NC1c1ccc2ccccc2c1 (stereo not drawn),-21%,-7%,-12%
CC(C)C(NC(=O)c1ccccc1)C(=O)OCC(=O)N1CCN(c2ccccc2)CC1 (stereo not drawn),-6%,-20%,1%
O=C(O)C/C=C(\NC(=O)OCc1ccccc1)C(=O)OCc1ccccc1,-10%,32%[activator],-8%
CCOC(=O)N1CCC(=NNc2nc(C)cc(=O)[nH]2)CC1,1%,0%,2%
CC1CCN(C(=O)CNC(=O)c2ccc(Br)o2)CC1,-5%,61%[activator],-5%
Cc1ccc(/C=N/NC(=O)CNC(=O)c2ccc(S(=O)(=O)N3CCCC3)cc2)o1,-15%,44%[activator],-2%
Cc1ccc(S(=O)(=O)N2[C@@H](c3cccc(Cl)c3)C(C(=O)O)=CC[C@H]2c2cccc(Cl)c2)cc1,15%,-1%,-26%
O=S(=O)(c1ccc2c(c1)CCN2)N1CCOCC1,33%,-20%,-4%
C[C@H](CO)N1C[C@H](C)[C@@H](CN(C)S(=O)(=O)c2ccc(F)cc2)Oc2ccc(NS(=O)(=O)c3ccccc3)cc2C1=O,-9%,3%,3%
Cc1cc(CNC(=O)c2cccc3c2C(=O)c2ccc(-c4ccc(F)cc4OCc4ccccc4)cc2S3(=O)=O)c(C(F)(F)F)o1,-12%,-9%,1%
C[C@@H]1CN([C@@H](C)CO)C(=O)c2cc(NS(C)(=O)=O)ccc2O[C@H]1CN(C)Cc1ccc(Oc2ccccc2)cc1,13%,0%,7%
CS(=O)(=O)N(Cc1nc(-c2ccc(F)cc2)no1)c1ccccc1Cl,-4%,0%,3%
[O-][n+]1c2cc(C(F)(F)F)ccc2c2n1CCN=C2c1ccc(Cl)cc1,1%,-2%,3%
O=C1C=C(c2ccc(O)cc2)C[C@@H](c2ccc3c(c2)OCO3)C1,22%,-20%,-14%
O=C(NCC1CCCCC1)c1ccc(Cl)c(S(=O)(=O)N2CCOCC2)c1,13%,-21%,1%
O=C(COC(=O)COc1ccc(Cl)cc1Br)NCCC1=CCCCC1,1%,-9%,-12%
CCN(CC)CCN(C(=O)c1ccc(C(C)=O)cc1)c1nc2ccc(Cl)cc2s1,12%,22%,2%
N#CCC(=O)N/N=C/c1ccc(SCC(=O)Nc2ccccc2)o1,17%,14%,1%
CN(c1ccccc1)S(=O)(=O)c1cccc(NC(=O)c2ccc(=O)[nH]c2)c1,-2%,-22%,-7%
Cc1ccc(S(=O)(=O)NCC(=O)OCc2cc(=O)oc3cc(C)ccc23)cc1,1%,-1%,2%
Cc1ccc(SCC(=O)OCC(=O)N(C)C2CCS(=O)(=O)C2)cc1C (stereo not drawn),-9%,-9%,8%
COc1ccc(C(=O)NCc2c(C)nn(Cc3ccccc3)c2C)cc1S(=O)(=O)N1CCOCC1,3%,-14%,4%
Cc1ccc(N2CC(C(=O)OCC(=O)Nc3ccc(F)cc3F)CC2=O)cc1 (stereo not drawn),0%,0%,5%
COCc1c(C(=O)N2CCN(c3ncccn3)CC2)oc2ccccc12,-13%,-16%,-8%
O=C(c1ccccc1Br)N1CCCC(c2nc(-c3cccs3)no2)C1 (stereo not drawn),11%,-5%,-12%
CCN(CC)S(=O)(=O)c1ccc(NC(=O)CCN2C(=O)C3CC=CCC3C2=O)cc1 (stereo not drawn),-13%,-5%,-3%
O=C(/C=C/c1ccc([N+](=O)[O-])s1)N1CCCC1,u,-7%,-7%
CC(C)c1ccccc1NC(=S)NCCCn1ccnc1,-3%,-13%,-1%

Nc1ccc(C(=O)OCC(=O)NC2CC2)cc1[N+](=O)[O-]
  RE007 growth inh = 0%; StopGo reporter = 10%; SARS PLpro yeast = 0%
COC(=O)CCCN1C(=O)NC(c2ccc(-c3ccccc3)cc2)C(C(=O)OCc2ccccc2)=C1C (stereo not drawn)
  RE007 growth inh = -1%; StopGo reporter = -23%; SARS PLpro yeast = 28%
Cc1ccccc1-c1nnc(SCC(=O)N(C)C2CCS(=O)(=O)C2)n1C (stereo not drawn)
  RE007 growth inh = -1%; StopGo reporter = -16%; SARS PLpro yeast = 5%
O=C(CN1CCCc2ccccc21)Nc1ccc(F)cc1[N+](=O)[O-]
  RE007 growth inh = 4%; StopGo reporter = -17%; SARS PLpro yeast = -1%
C[C@H](CO)N1C[C@H](C)[C@@H](CN(C)C(=O)Nc2ccc(C(F)(F)F)cc2)Oc2ccc(NC(=O)C3CC3)cc2C1=O
  RE007 growth inh = 11%; StopGo reporter = -15%; SARS PLpro yeast = 6%
CN1C2CCC1CC(NC(=O)c1cc(S(=O)(=O)N(C)C)c(Cl)cc1Cl)C2 (stereo not drawn)
  RE007 growth inh = 3%; StopGo reporter = 0%; SARS PLpro yeast = -5%
CCc1ccc([C@@H]2CC=C(C(=O)O)[C@H](c3ccccc3)N2S(=O)(=O)c2ccc(C)cc2)cc1
  RE007 growth inh = 5%; StopGo reporter = 32%[activator]; SARS PLpro yeast = -1%
CCC/C(=C1/c2ccccc2C(=O)N1c1ccccc1)c1ccc2c(c1)OCO2
  RE007 growth inh = -1%; StopGo reporter = -21%; SARS PLpro yeast = 1%
C=CCNC(=O)COC(=O)c1nc2nccc(C)n2n1
  RE007 growth inh = 20%; StopGo reporter = -4%; SARS PLpro yeast = 3%
O=C1c2oc3ccccc3c(=O)c2C(c2ccc(O)cc2)N1c1nccs1 (stereo not drawn)
  RE007 growth inh = -3%; StopGo reporter = -26%; SARS PLpro yeast = 1%
CC(C)NC(=O)Nc1ccc2c(c1)CC(=O)N([C@@H](C)CO)C[C@H](C)[C@@H](CN(C)C(=O)NC1CCCCC1)O2
  RE007 growth inh = -10%; StopGo reporter = -13%; SARS PLpro yeast = -2%
COc1ccc(C2(C)ON(c3ccccc3C(F)(F)F)C2=O)cc1 (stereo not drawn)
  RE007 growth inh = 2%; StopGo reporter = u; SARS PLpro yeast = -1%
Cc1ccc(S(=O)(=O)N2C[C@@H]3[C@H]4CC[C@H](C4)[C@@H]3[C@@H](C)[C@@H]2c2cccn2Cc2ccccc2)cc1
  RE007 growth inh = 23%; StopGo reporter = -23%; SARS PLpro yeast = 2%
O=C(NCC1CC1)c1cccc2c1C(=O)c1ccc(-c3ccc(OC(F)(F)F)cc3)cc1S2(=O)=O
  RE007 growth inh = -4%; StopGo reporter = -3%; SARS PLpro yeast = 0%
O=C(COc1cccc(C(F)(F)F)c1)NNC(=O)Cc1ccc(S(=O)(=O)N2CCOCC2)s1
  RE007 growth inh = 13%; StopGo reporter = -8%; SARS PLpro yeast = -5%

CC(=O)c1c(C)[nH]c(C(=O)OC(C)C(=O)Nc2ccc(C)c(S(=O)(=O)N3CCOCC3)c2)c1C (stereo not drawn)
  RE007 growth inh = -11%; StopGo reporter = 0%; SARS PLpro yeast = -20%
COC(=O)c1ccn(CSc2cc(Cl)ccc2Cl)n1
  RE007 growth inh = -5%; StopGo reporter = -15%; SARS PLpro yeast = 1%
O=[N+]([O-])c1cccc(CN2CCN(Cc3ccc(Br)cc3)CC2)c1
  RE007 growth inh = -6%; StopGo reporter = u; SARS PLpro yeast = 0%
Cn1cncc1C#Cc1ccc2cc(CCCO)oc(=O)c2c1
  RE007 growth inh = -5%; StopGo reporter = 25%; SARS PLpro yeast = -1%
CCOC(=O)[C@H]1[C@H]2COc3ccc(OC)cc3[C@@H]2N2C(=O)[C@H](C)NC(=O)[C@@]12C
  RE007 growth inh = 6%; StopGo reporter = -4%; SARS PLpro yeast = -1%

Source: PubChem BioAssay (National Center for Advancing Translational Sciences (NCATS))
